# NS1 inh – blocks influenza NS1 protein function. S. cerevisiae slowed by influenza A NS1, growth recovery by OD600. Potency, µM (series often up to 46.1 µM), for inactives: top-dose activity, positive = more growth. 270,000 tested, 0.4% active; active means well fitted rising curve with a large enough effect; inconclusive means small, poorly fitted or top-dose-only effect; inactive means no such curve, though single readings can be large or run the other way; note: nearly all actives have a fitted effect of over 50% in size
#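 S. cerevisiae expressing influenza A NS1, grown in glucose, washed, then diluted 1:100 into pH 6.0 -URA galactose medium with 23 nl compound. Growth recovery read as OD600; NS1-free strain serves as control.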
# Cruzain inh noDet – blocks cruzain activity in detergent-free assay | P25779 | purified cruzain, Z-FR-AMC fluorescence, no detergent | Potency, µM, without a hit: max response, negative = inhibition, actives largely listed as inhibitors | 200,000 tested, 2.3% active | AID 1476;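 note: plate controls were enzyme without inhibitor for no effect and buffer without enzyme for full effect; nearly all actives have a fitted effect of over 40% in size; top concentration of the series not given in the record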
# Target sequence (P25779 123-467 limits assumed): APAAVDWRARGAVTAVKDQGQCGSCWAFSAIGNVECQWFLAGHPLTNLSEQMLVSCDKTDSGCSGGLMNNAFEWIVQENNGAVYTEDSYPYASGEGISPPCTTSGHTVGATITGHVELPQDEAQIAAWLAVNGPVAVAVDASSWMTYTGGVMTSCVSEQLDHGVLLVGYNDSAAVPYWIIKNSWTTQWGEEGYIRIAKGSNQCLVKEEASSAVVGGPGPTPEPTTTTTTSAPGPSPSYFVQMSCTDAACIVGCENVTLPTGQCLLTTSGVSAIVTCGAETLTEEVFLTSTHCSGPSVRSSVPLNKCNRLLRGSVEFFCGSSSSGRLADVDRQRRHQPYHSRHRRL
#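 Purified cruzain at 1.5 nM, pre-incubated 15 min with compound at room temperature in 100 mM sodium acetate pH 5.5, 5 mM DTT, 0.00005% Triton X-100. Reaction started with 2 uM Z-FR-AMC; AMC fluorescence increase over 60 s gives rate.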
# Cruzain inh Det – inhibitors of Trypanosoma cruzi cruzain with detergent. AID 1478. 200,000 tested, 0.43% active. purified cruzain, Z-FR-AMC fluorescence, 0.01% Triton. Potency, µM, without a hit: max response, negative = inhibition, usual class: inhibitors. P25779;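 note: plate controls were neutral wells for no effect and buffer without enzyme for full effect; nearly all actives have a fitted effect of over 40% in size; top concentration of the series not given in the record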
#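 Sodium acetate buffer (100 mM, pH 5.5) containing 5 mM DTT and 0.01% Triton X-100 hosted 1.5 nM cruzain and test compound for 15 min at room temperature. Cleavage of 2 uM Z-FR-AMC was then tracked by fluorescence.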
# MARV entry inh – blocks Marburg virus binding to or entry into cells. Potency, µM (doses to about 37.8 µM), inactives show at the top dose activity change, negative = inhibition, actives largely listed as inhibitors. 300,000 tested, 1.8% active. Marburg virus pseudotyped entry inhibition, cell reporter; control for the full effect not named in the record; about a third of the inactives were read at about 46 µM; active = well fitted inhibition curve with a large enough effect; inconclusive = small, poorly fitted or top-dose-only effect, or effect the other way; inactive = flat fitted curve, though single readings scatter; tested in HEK293 cells; about a fifth of its hits are not listed in these tables; note: % is set by controls: 0 for no effect and ±100 for the full control effect; luciferase read-out
# SARS PLP yeast – blocks SARS-CoV papain-like protease in a yeast assay; S. cerevisiae expressing SARS-CoV PLpro, growth rescue; control for the full effect not named in the record; Potency, µM (top dose mostly 32.9 µM), inactives show at the top dose activity, positive = growth rescue; 330,000 tested, 0.19% active; active means well fitted rising curve with a large enough effect; inconclusive means small, poorly fitted or top-dose-only effect; inactive means no such curve, though single readings can be large or run the other way; note: 0% is about no effect; nearly all actives have a fitted effect of over 55% in size; growth read by luminescence after 48 h
# RE007 growth inh – less growth of the S. pombe RE007 Vpr strain | S. pombe RE007 Vpr strain, BacTiter-Glo ATP luminescence, 24 h; control for the full effect not named in the record | Potency, µM (titrated, usually from 92.2 µM), for inactives: top-dose activity change, negative = less growth | 360,000 tested, 0.21% active | AID 651644; active = well fitted falling curve with a large enough effect; inconclusive = small, poorly fitted or top-dose-only effect; inactive = no such curve, though single readings can be large or run the other way;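 note: % is set by controls: 0 for no effect and ±100 for the full control effect; nearly all actives have a fitted effect of over 50% in size; the assay follows cell death caused by Vpr and the record does not say whether a fall means rescue or toxicity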
#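 Fission yeast RE007 carrying one integrated HIV-1 vpr copy, seeded at OD 0.01 in PMG+AL medium with 23 nL pinned compound. Grown 24 h at 30 degrees; viability read by BacTiter-Glo luminescence after 5 min.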
# 2A StopGo – lowers the luciferase signal of an FMDV 2A StopGo reporter; human cells with a luciferase reporter of 2A StopGo recoding; control for the full effect not named in the record; Potency, µM (series often up to 57.9 µM), for inactives: at the highest dose signal change, negative = less light; 410,000 tested, 1.2% active; AID 1159524; active = well fitted falling curve with a large enough effect; inconclusive = small, poorly fitted or top-dose-only effect; inactive = no such curve, though single readings can be large or run the other way; tested in HEK293T cells; note: % is set by controls: 0 for no effect and ±100 for the full control effect; nearly all actives have a fitted effect of over 45% in size; luciferase light after 4 h
# LASV entry inh – blocks Lassa virus binding to or entry into cells; Potency, µM (titrated, usually from 37.9 µM), for inactives: at the highest dose activity change, negative = inhibition, usual class: inhibitors; Lassa virus pseudotype entry inhibition, cell reporter; control for the full effect not named in the record; AID 540256; 300,000 tested, 1.2% active; active means well fitted inhibition curve with a large enough effect; inconclusive means small, poorly fitted or top-dose-only effect, or effect the other way; inactive means flat fitted curve, though single readings scatter; tested in HEK293 cells; note: % is set by controls: 0 for no effect and ±100 for the full control effect; nearly all actives have a fitted effect of over 50% in size; luciferase read-out
# The depositor's hits bear a star; ? = inconclusive; . = not tested or not shown; & = joins results of further samples; [ ] = dose if it differs, or a comment. Unless noted, calls come from the whole dose curve; as a rule, active = well fitted curve in the direction sought with a large enough effect; inconclusive = small, poorly fitted or top-dose-only effect, or another doubt; inactive = no such curve, though single readings can be large; an effect the other way counts as inactive or inconclusive. Potency is the fitted concentration of half-maximal effect.
SMILES,NS1 inh,Cruzain inh noDet,Cruzain inh Det,MARV entry inh,SARS PLP yeast,RE007 growth inh,2A StopGo,LASV entry inh
CC(=O)Nc1ccc2c(c1)C(=O)c1cccc(C(=O)O)c1-2,.,.,.,26%,.,-18%,-15%,12%[46.1 µM]
CCOCCCNc1ncnc2c1[nH]c1ccccc12,-27%,?,?,?,-1%,14%,?,?
CCOC(=O)C1(Cc2cccc(OC)c2)CCN(C(C)CC(C)(C)O)CC1 (configuration not stated),8%,.,.,?,0%,-8%,?,10%[46.1 µM]
N/C(=N\c1nc2c(c(=O)[nH]1)CCC2)Nc1cccc(Cl)c1,-1%,-6%,-4.3%,6.3µM*,9%,28%,-14%,-27%
Cc1cccc(N2CC(c3nc4ccc(C)cc4[nH]3)CC2=O)c1 (configuration not stated),.,-5%,-8.5%,6%[46.1 µM],.,.,-7%,-1%[46.1 µM]
O=C1c2ccccc2C(O)(c2ccccc2)N1CCc1ccccc1 (configuration not stated),3%,.,.,.,-8%,2%,-11%,.
CCOC(=O)c1cc(-c2ccc(C)cc2)nc2nc(SC)[nH]c(=O)c12,11%,15%,0.2%,-19%,-2%,17%,-13%,13%
COc1ccc(NC(=O)CN(c2ccccc2F)S(=O)(=O)c2ccc(C)cc2)cc1,-3%,.,.,.,4%,0%,20%,.
O=C(O)COCC(=O)N1CCN(C(c2ccccc2)c2ccccc2)CC1,1%,.,.,3%,1%,-1%,-9%,29%
CCN1CCN(C(=O)/C=C/c2ccc([N+](=O)[O-])cc2)CC1,1%,-15%,-9.3%,?,2%,5%,1%,15%
CCn1c(-c2cccnc2)n[nH]c1=S,11%,5%,-0.3%,-2%,2%,5%,11%,-1%
CCC(=O)NCCNc1nc2cc(C)c(C)cc2cc1C#N,6%,-2%,-7.2%,4%,-3%,3%,-6%,-2%
CCC1CCC(c2nnc(-c3ccc([N+](=O)[O-])cc3)o2)CC1 (configuration not stated),-6%,12%,-7.3%,?,25%,6%,18%,-2%
CN(C(=O)CSc1nnc(-c2ccccc2F)o1)c1ccccc1,.,.,.,-5%,-3%,-18%,52%[activator],5%
CN(Cc1ccccc1)c1nc(N)c([N+](=O)[O-])c(NCc2ccccc2)n1,8%,-21%,-5.2%,?,16%,3%,35µM*,?
COc1ccc(-c2csc(NC(=O)c3cccs3)c2C(=O)O)cc1OC,15%,.,.,-17%,-1%,29%,26%,8%
COc1ccc(C)cc1N(C(=O)COc1cccc(F)c1)c1nc2ccccc2s1,-9%,?,-5.8%,-13%,-14%,-15%,-11%,15%
Cc1ccc(NS(=O)(=O)c2ccc3c(c2)NC(=O)C(C)C(=O)N3)c(Br)c1 (configuration not stated),4%,.,.,.,2%,3%,0%,.
OCc1ccc(-c2nn(Cc3ccccc3)c3ccccc23)o1,?,8%,-11%,2.6µM*,.,1%[18.4 µM],-1%,2.9µM*
CC(C)N1CSC(=S)N(Cc2ccccc2)C1,.,.,.,1%,2%,0%,?,-3%
CCc1ccccc1NC(=O)Nc1cccc(F)c1,-3%,.,.,.,-2%,14%,0%,.
COc1ccc(S(=O)(=O)O/N=C2\CCCc3ccccc32)cc1,4%,-3%,0.4%,4%[46.1 µM],7%,-4%,-15%,14%
Cc1cccc2cc(C#N)c(NCCCn3ccnc3)nc12,-11%,20%,-0.5%,11%,-6%,2%,-27%,11%
NNC(=O)CNC(c1ccccc1)c1cc(Br)ccc1N (configuration not stated),15%,.,.,-13%[46.1 µM],-2%,0%,-12%,-15%
O=C(CSc1ncccc1C(=O)O)c1ccc2ccccc2c1,0%,-13%,-1.8%,?,0%,-1%,-2%,?
CN(C)c1ccc(/C=C/C(=O)c2cccnc2)cc1,-32%,.,.,?,0%,-29%,10%,22%[46.1 µM]
COc1ccc(C(C)=O)cc1COC(=O)CCNS(=O)(=O)c1ccc(C)c(C)c1,.,.,.,-6%,-3%,-6%,-23%,6%
Cc1ccc(NS(=O)(=O)c2cc([N+](=O)[O-])ccc2N/N=C/c2sc(N3CCOCC3)nc2-c2ccccc2)c(C)c1,2%,.,.,-1%,2%,18%,-14%,.
Cc1ccc(OCC(=O)NC2CCS(=O)(=O)C2)c([N+](=O)[O-])n1 (configuration not stated),.,.,.,-12%[46.1 µM],-5%,1%,-5%,0%
CN1C(=O)/C(=C\c2ccccc2OCc2ccccc2)SC1=S,1%,.,.,.,1%,12%,-25%,.
Cc1ccccc1Nc1nc(N)nc(CSc2nc3ccccc3c(=O)n2C)n1,-2%,-3%,2.5%,?,-1%,12%,16µM*,?
COC(=O)Nc1nn(-c2ccc(Cl)cc2)c(=O)c(C#N)c1C,-2%,.,.,.,0%,0%,5%,.
COCCn1c(=NC(=O)CCS(=O)(=O)c2ccccc2)sc2cc(F)ccc21,2%,.,.,-23%,-1%,2%,-16%,-10%
COc1cc(CNC2CCCCCCC2)ccc1OCC(N)=O,-11%,.,.,.,-3%,5%,-3%,.
CCOC(=O)Cn1cnc2c(sc3nc(C)cc(C)c32)c1=O,3%,.,.,.,1%,0%,38%[activator],.
O=C(Cc1cccc2ccccc12)Nc1ccccc1Br,-4%,.,.,.,-1%,-5%,8%,.
O=[N+]([O-])c1cccc(S(=O)(=O)Nc2ccc(-c3ccc(N4CCOCC4)nn3)cc2)c1,.,.,.,18%[46.1 µM],3%,-12%,6%,11%
CCCc1cc(C(=O)Nc2ccc(C(=O)c3ccccc3)cc2)n(C)n1,-57%,.,.,.,1%,-5%,?,.
O=C(c1ccc(NS(=O)(=O)c2cccc3cccnc23)cc1)N1CCCCC1,0%,.,.,.,0%,3%,39%[activator],.
CC1C/C(=N/N2C(=O)CSC2=S)CC(C)(C)C1 (configuration not stated),7%,3%,-2.0%,-4%[46.1 µM],1%,-13%,-18%,-25%
Cc1ccc(/C=C2/SC(=S)N(CCCC(=O)Nc3cc([N+](=O)[O-])ccc3O)C2=O)cc1,11%,.,.,-27%[46.1 µM],-6%,-16%,?,-25%[46.1 µM]
Nc1nc(SCC(=O)NC2CCCCC2)n[nH]1,7%,.,.,-28%[46.1 µM],-1%,7%,-6%,-5%[46.1 µM]
Cc1ccc(-c2noc(-c3nnn(CC(=O)Nc4cccc(C(F)(F)F)c4)c3N)n2)cc1,.,0%,-2.7%,.,.,.,7%,6%[46.1 µM]
CCc1sc(NC(=O)CN2CCC(C(N)=O)CC2)nc1-c1ccccc1,0%,.,.,.,0%,-10%,-6%,.
COc1cccc(NC(=O)CSc2nc3ccccc3c(=O)n2Cc2cccs2)c1,-9%,?,-4.8%,?,?,-18%,49%[activator],-13%
CCN(CCS(=O)(=O)c1ccc(Cl)cc1)C(=O)Nc1ccccc1,0%,.,.,?,-1%,-13%,20%,?
C[C@H](NC(=O)c1nc[nH]c1C(=O)N[C@H](C)c1ccccc1)C(=O)OC(C)(C)C,3%,.,.,.,0%,7%,0%,.
CCc1ccc(NC(=O)C(C)OC(=O)C2CCC(=O)N2)cc1 (configuration not stated),2%,.,.,11%[46.1 µM],4%,-1%,17%,2%
COc1ccc(NC(=O)CN(C)C(=O)c2cccnc2Sc2ccc(C)c(C)c2)cc1,.,.,.,-4%,0%,-13%,-4%,0%
CCCc1cc(-c2n[nH]c(=S)n2CC(C)C)cs1,-40%,-19%,?,26%,-1%,23%,?,?
Cc1c(Cc2ccc3c(c2)OCO3)sc(NC(=O)c2cccc3ccccc23)c1C(N)=O,5%,?,-4.0%,-35%,-25%,-5%,-3%,-10%
COC(=O)c1cc2oc3ccccc3c2n1CC(=O)Nc1cccc(SC)c1,.,?,-0.5%,?,.,.,28%,.
CCC(C(=O)N1CC2(C)CC1CC(C)(C)C2)N1C(=O)c2ccccc2C1=O (configuration not stated),-42%,12%,1.1%,-27%,-4%,6%,-6%,-9%
COC(=O)c1ccc(NC(=O)CSc2nnc3c4ccccc4n(C(C)C)c3n2)cc1,.,-5%,-1.8%,0%[46.1 µM],.,.,?,1%[46.1 µM]
C=CC[n+]1c(-c2ccc(C)cc2)csc1Nc1c(C)n(C)n(-c2ccccc2)c1=O,.,.,.,?,-1%,36%,-18%,?
COc1ccc(N(CC(=O)NCc2ccc(Cl)cc2)S(=O)(=O)c2c(C)noc2C)cc1,-2%,.,.,.,0%,-11%,-20%,.
NC(=O)c1ccsc1NC(=O)COC(=O)c1ccccc1NCc1ccco1,-7%,-26%,-8.4%,4%,-4%,-3%,-28%,2%
N#Cc1nc(COc2ccccc2Cl)oc1NCc1ccco1,-50%,0%,-0.4%,-12%,-1%,16%,-7%,1%
CC(C)(C)n1ncc2c(=O)n(CC(=O)N3CCN(c4ccccc4)CC3)cnc21,-7%,0%,0.6%,?,3%,-4%,-21%,5%
CC1=C(C(=O)N(C)C)C(c2ccccc2OC(F)F)NC(=O)N1 (configuration not stated),7%,.,.,3%[46.1 µM],-2%,-2%,-12%,4%
# (listing goes on)
SMILES,NS1 inh,Cruzain inh noDet,Cruzain inh Det,MARV entry inh,SARS PLP yeast,RE007 growth inh,2A StopGo,LASV entry inh
COc1ccccc1CNC(=O)C1CCN(S(=O)(=O)c2ccc3nc4c(c(C(=O)O)c3c2)CCCC4)CC1,9%,.,.,.,?,16%,-21%,.
Cc1nn(Cc2ccc(C(=O)NC(C)(C)C)o2)c(C)c1Br,-32%,5%,0.5%,?,2%,0%,?,-9%
C=CCc1ccc(OCCOc2cccc3cccnc23)c(OC)c1,-33%,9%,-8.4%,?,11%,-29%,-7%,2%
CC(=O)Nc1ccc(NC(=O)CSc2ncc(C(=O)Nc3ccc(Cl)cc3)c(=O)n2C)cc1,.,.,.,-23%,0%,6%,-20%,-32%
CCn1c(SCC(=O)Nc2cccc(F)c2)nnc1-c1cc2cc(Br)ccc2o1,-16%,?,1.1%,-25%&-25%,23%,-15%,-21%,-6%
COC(=O)c1cccc(NS(=O)(=O)c2cccs2)c1C,0%,-4%,-1.4%,-8%,.,3%,20%,3%

# Assay outcomes: PubChem BioAssay, National Center for Advancing Translational Sciences (NCATS)
